# Bioassay records as filed in PubChem.
# AID504770 – growth inhibition of E. coli YBA685, primary screen, V. cholerae RctB inhibitors; E. coli YBA685 rctB-dependent plasmid, OD600 growth, 3 h; active compounds read low; z-score (test concentration not listed); 130,000 compounds, 0.27% hits; AID 504770, 2011;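 active = z-score under -2 on both plates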;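 note: wells of about 30 µL received 100 nL stock; score is relative to mean and SD of the test wells; the first replicate is given; strong numbers were not always called active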
# CapD inh – Bacillus anthracis CapD inhibitors, primary screen, biochemical, fluorescence intensity; 140,000 compounds, 0.23% hits; CapD gamma-glutamyltranspeptidase (Bacillus anthracis Ames Ancestor); purified CapD enzyme, fluorescence intensity read-out; active compounds read low; some hits fall short of the stated cut; z-score (no concentration beside the values);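 active = z-score under -4 in either of two replicates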;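 note: stock transfer was 100 nL into about 40 µL; score is relative to mean and spread of the plate; one replicate is shown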
# Numbers without * were called inactive; x = no result given; & = joins results of further samples.
SMILES,AID504770,CapD inh
CN(C(=O)COC(=O)c1c(F)cccc1Cl)C1CCCCC1,1.6,-0.085
O=C1CSC(c2ccc(OC(F)F)cc2)N1c1ccc(Br)cc1 (centres undefined),x,-0.2
O=S(=O)(NCCC1=CCCCC1)c1ccccc1OC(F)(F)F,x,-0.36
NNC(=O)c1nnn(-c2nonc2N)c1CN1CCCCC1,-0.35,0.35
O=C(NCCc1ccccc1)c1ccc(N2CCCCS2(=O)=O)cc1,-0.15,x
CC1(C)O[C@@H]2CC3C4C[C@H](F)C5=CC(=O)C=CC5(C)C4C(O)CC3(C)[C@]2(C(=O)CO)O1 (some centres undefined),0.9,0.27
c1csc(C2Nc3ccccc3O2)c1 (centres undefined),x,-0.43
COC(=O)COc1ccc2c(=O)c(-c3ccc(Cl)cc3)coc2c1,1.6,-0.81
CC1=C(C(=O)OCC(F)(F)F)C(c2ccccc2)NC(=O)N1 (centres undefined),1.5,-0.33
CC(=O)Nc1ccc(S(=O)(=O)N2CCN(c3ncnc4sccc34)CC2)cc1,x,0.25
O=C1C2C3C=CC(C3)C2C(=O)N1c1ccc(S(=O)(=O)Nc2nccs2)cc1 (centres undefined),x,0.02
O=C(O)CCCn1nc(C(F)(F)F)c2c1CCCCC2,-0.9,0.07
COc1ccc(/C=C/c2onc3ccccc23)cc1,0.95,-0.14
Cc1ccc(N(C)C(=O)C2CCCN2S(=O)(=O)c2ccc3c(c2)n(C)c(=O)c(=O)n3C)cc1 (centres undefined),1.5,1.8
COC(=O)C(C)N(C#N)c1nc(N(C)C)nc(N(C)C)n1 (centres undefined),-0.3,0.31
CN1CCN(C(=O)c2ccc3cc[nH]c3c2)CC1,x,3.3
Cc1ccsc1CNc1ccc2[nH]c(=O)[nH]c2c1,-0.7,8.9
O=C(CSc1nnc2c(n1)[nH]c1ccccc12)NCCc1ccccc1,x,-0.21
O=C(/C=C/c1ccccc1)Nc1nnc(C(F)(F)F)s1,-0.1,-0.02
O=C(NN1C(=O)/C(=C/c2ccccc2[N+](=O)[O-])SC1=S)c1ccc(Br)cc1,x,-0.21
O=C(CSc1ccc2nnc(CCNS(=O)(=O)c3ccccc3)n2n1)Nc1ccc2c(c1)OCO2,-0.65,-0.14
O=C(O)CSc1nc(-c2ccccc2)c(-c2ccccc2)[nH]1,-0.55&0.35,61&68
CCc1sc(-c2c(C#N)c(N)nc3c2CCCCCC3)cc1[N+](=O)[O-],x,-0.08
Cc1ccccc1Cn1cc(SCC(=O)N2CCCc3ccccc32)c2ccccc21,0.6,-0.61
Cc1ccc2onc(CNC(=O)NC3CCCC(C)C3C)c2c1 (centres undefined),-0.45,-0.53
CCOC(=O)c1cnc2c(C)cc(C)cc2c1Nc1cccc(C(=O)OC)c1,x,-0.46
CC1=CC(C)C2C(=O)N(c3ccccc3)C(=O)C2C1 (centres undefined),-0.9,x
CCCCn1c(=N)n(CCO)c2ccccc21,-0.1,-0.17
CCc1ccc(O)c(C2(O)C(=O)c3ccccc3C2=O)c1,2,-0.74
CCCCN1CCc2[nH]c(=S)[nH]c(=O)c2C1,0.35,-0.61
Cc1ccc2c(c1)CCCN2C(=O)Nc1cccc(C)c1C,-0.45,1.1
COC(=O)C1=C(N)n2c(s/c(=C\c3ccc(Cl)cc3)c2=O)=C(C(=O)OC)C1c1ccc(Cl)cc1 (centres undefined),x,0.52
O=C(CN1CC(C(=O)N2CCOCC2)Oc2ccccc21)NCCc1c[nH]c2ccccc12 (centres undefined),0.65,x
Cc1csc(=O)n1CC(=O)OCc1nnc(-c2ccc(Cl)cc2)o1,-0.1,x
CC1=C(CC(=O)NNC(=O)c2sc(-c3cccc(-n4cccc4)c3)nc2C)c2cc(F)ccc2/C1=C\c1ccc(S(C)=O)cc1 (centres undefined),x,-0.17
COC(=O)C1=C(C(=O)OC)SC(=C2C(=S)C(C)(C)N(C(=O)c3ccc(C(F)(F)F)cc3)c3ccc(C)cc32)S1,x,-0.22
Cc1onc(-c2ccccc2)c1-c1nc(CSc2nc3ccccc3[nH]2)no1,-0.2,-0.23
O=C(Nc1nc(-c2cccs2)cs1)c1ccc2ncsc2c1,0.2,-0.59
O=C(NCCO)c1ccc(N2C(=O)CCC2=O)cc1,-0.7,-0.72
CC1CC(N(C(=O)c2ccc(Cl)cc2Cl)c2ccccc2)c2ccccc2N1C(=O)c1ccc(Cl)cc1 (centres undefined),x,0.34
Cc1ccn2c(NC(=O)C3CCCCC3)c(-c3ccc(F)cc3)nc2c1,0,-0.18
COC(=O)c1cc2cccc(OC)c2oc1=O,-0.65,-1.6
O=C(c1ccc2nc[nH]c2c1)N1CCc2ccccc2C1,0,x
CCOc1ccc(C2C(C#N)=C(C)NC3=C2C(=O)CC(c2ccc(Cl)cc2)C3)cc1OC (centres undefined),x,22
O=C(O)c1cn(Cc2ccccc2)c2ccccc12,0,x
CCOC(=O)/C(C#N)=C1\SCC(C)(O)N1c1c(F)cccc1F (centres undefined),-1.8,-0.42
CCOC(=O)c1cc(=O)c2cc(Cl)ccc2o1,1.2,-0.28
O=C(NCc1ccco1)c1ccc2c(Cl)c3c(nc2c1)CCC3,1.4,0.17
COCc1cc(C)nc2sc(C(=O)Nc3ccc4c(c3)OCO4)c(N)c12,-0.9,-1.7
CCc1ccc(NC(=O)Cn2cnc3c(nc4n3CCCCC4)c2=O)cc1,1.6,-0.86
N#C/C=C(\Nc1ccc(F)cc1F)c1ccccc1Cl,x,0.22
Clc1ccc(-c2ccnc(Oc3cc(Cl)cc(Cl)c3)n2)cc1,x,-0.37
CCOC(=O)c1cc(-c2cccs2)nn1-c1ccc(F)cc1,0.7,0.45
Fc1ccc(-c2nc3ccc4ccccc4c3c3c2CCC3)cc1,0.2,0.03
CC(C#N)N1CCN(C(c2ccccc2)c2ccccc2)CC1 (centres undefined),0.2,x
N#Cc1c(-c2cccs2)cc(-c2cccs2)nc1N,0.5,0.92
CNC(=S)N/N=C(\C)c1ccc(F)cc1,x,-0.35
CC1CC(C)CN(S(=O)(=O)c2ccc3[nH]cc(C(=O)N(Cc4ccco4)CC4CCCO4)c(=O)c3c2)C1 (centres undefined),x,0.92
CCCn1c(SCc2nc(N)nc(Nc3ccc(C)cc3)n2)n[nH]c1=O,-0.45,x
O=C(O)CCCn1cc(NC(=O)CCc2ccccc2)cn1,-0.45,0.035

# (next part)
SMILES,AID504770,CapD inh
Cc1nc(-c2ccc3c(c2)CCN3c2ncnc3sccc23)cs1,-0.9,x
Cc1cccc2nc(-c3cccc(NC(=O)C(C)C)c3)cn12,-0.35,0.26
Cc1[nH]cnc1CN1CCN(C/C=C/c2ccccc2)CC1,-0.55,0.16
Cc1nc(N)sc1Cc1ccc2c(c1)OCO2,-0.2,x
CC1(C(=O)N2CCc3ccccc3C2)CCC(C(=O)O)C1(C)C (centres undefined),x,0.18
CN1C(=O)CSc2ccc(NC(=O)N3CCN(c4ccccc4)CC3)cc21,-0.1,0.15
Clc1ccc(NCn2nnc3ccccc32)cc1,0.4,0.34
CC(C)SC(=O)c1scc(S(C)(=O)=O)c1Cl,0.4,0.2
Cn1c(=O)c(O)c2c3c(c(Br)ccc31)C(=O)c1ccccc1-2,x,-0.44
Cc1cc(NC(=O)C(C)(C)C)no1,-0.55,x
O=C(c1ccc(Br)o1)N1CCN(c2ccccc2F)CC1,0.2,-0.65
COc1ccc(NCC(=O)N/N=C/c2c(C)nn(-c3ccccc3)c2N2CCCC2)cc1,0.25,x
FC(F)(F)COc1nc(N2CCCCC2)nc(N2CCN(c3ccccc3)CC2)n1,0.15,0.24
Cc1ccc(N2NC3(CCCC3)NC2=S)cc1,x,-0.085
O=C(CSc1ccccc1)c1ccccc1Br,-0.1,-0.03
CC(=O)Oc1ccc2c(c1)CCC1C2CCC2(C)C(=O)CCC12 (centres undefined),x,-0.14
CC(C)(C)c1ccc(C(=O)NCc2ccco2)cc1,1.2,-1.4
C=CCN(C(=O)c1cccc(N2C(=O)C3CC=CC(C)C3C2=O)c1)c1ccccc1 (centres undefined),x,-0.62
S=C(NCc1ccccc1)NN=C1CCCC1,-0.6,x
CC(C)[C@H](NS(=O)(=O)c1ccc2c(c1)OCCO2)C(=O)NC1CCCCCC1,-0.05,x
COc1ccc2[nH]cc(NC(=O)NCc3ccncc3)c(=O)c2c1,-0.65,x
CC1=CC(C)C2(COC(CN3CCCCC3)OC2)C(C)C1 (centres undefined),-0.55,x
COCCN1C(=O)c2oc3ccccc3c(=O)c2C1c1ccc(OC)c(OC)c1 (centres undefined),0.5,-0.3
Cc1ccc(S(=O)(=O)c2nc(C(C)(C)C)oc2NCc2ccccc2)cc1,-0.45,-0.095
O=S(=O)(Cc1noc(-c2ccc(Cl)cc2)n1)Cc1ccco1,0.7,-0.35
Cc1nc2ccc(Cl)cc2cc1C(=O)O,-0.8,x
CCc1ccccc1NC(=S)N(Cc1cccc(C)c1)c1cccnc1,-0.55,0.075
CC1=CC(=O)C=CC1=N/C(=N\S(=O)(=O)c1ccc(C)cc1)c1ccccc1,0,6.7
Cc1ccc(Nc2ncc(C(=O)NCCC3=CCCCC3)c3ccccc23)cc1Cl,x,0.22
COC(=O)c1ccc2c(c1)N(Cc1nc(-c3ccccc3C)oc1C)C(=O)C1CCCN21 (centres undefined),1.5,2.7
Cn1c(=O)c(C#N)c(O)c2ccccc21,0.45,6.2
COc1ccc2[nH]c(C(=O)Nc3ccc4c(c3)OCO4)cc2c1,0.55,0.065
CC(=O)Oc1ccc2cc(-c3nc(-c4cccs4)cs3)c(=O)oc2c1,x,-0.72
Cc1cc(=O)[nH]c(N/N=C/C=C/c2ccccc2)n1,-1.1,-3.8
COC(=O)c1c(NC(=O)/C=C/c2cccs2)sc2c1CCCC2,-0.4,x
CC[N+](C)(C)Cc1ccccc1Br,x,0.05
CN(CC(=O)NCc1cccc(F)c1)C(=O)c1ccco1,-0.5,-0.31
CN(C)CCN(Cc1ccccc1)c1ccccn1,x,-0.21
C[C@]12C[C@H](O)[C@@H]3c4ccc(O)cc4CCC3[C@@H]1CCC2=O (some centres undefined),0.25,0.39
CCOC(=O)C1CCCN(S(=O)(=O)c2ccccc2)C1 (centres undefined),-0.2,0.08

# 4 entries out of the list, ordered by length of the SMILES, largest number first:
SMILES,AID504770,CapD inh
CC1=CC(=O)C=CC1=N/C(=N\S(=O)(=O)c1ccc(C)cc1)c1ccccc1,0,6.7
CC1=CC(C)C2(COC(CN3CCCCC3)OC2)C(C)C1 (centres undefined),-0.55,x
CN(CC(=O)NCc1cccc(F)c1)C(=O)c1ccco1,-0.5,-0.31
Cn1c(=O)c(C#N)c(O)c2ccccc21,0.45,6.2

# Seven of these compounds in another layout:
structure | AID504770 | CapD inh
O=C(CSc1ccc2nnc(CCNS(=O)(=O)c3ccccc3)n2n1)Nc1ccc2c(c1)OCO2 | -0.65 | -0.14
CCOc1ccc(C2C(C#N)=C(C)NC3=C2C(=O)CC(c2ccc(Cl)cc2)C3)cc1OC (centres undefined) | x | 22
Cc1ccc(N2NC3(CCCC3)NC2=S)cc1 | x | -0.085
O=C(NCCO)c1ccc(N2C(=O)CCC2=O)cc1 | -0.7 | -0.72
CC1=C(CC(=O)NNC(=O)c2sc(-c3cccc(-n4cccc4)c3)nc2C)c2cc(F)ccc2/C1=C\c1ccc(S(C)=O)cc1 (centres undefined) | x | -0.17
CC1(C)O[C@@H]2CC3C4C[C@H](F)C5=CC(=O)C=CC5(C)C4C(O)CC3(C)[C@]2(C(=O)CO)O1 (some centres undefined) | 0.9 | 0.27
CCc1sc(-c2c(C#N)c(N)nc3c2CCCCCC3)cc1[N+](=O)[O-] | x | -0.08

# (listing goes on)
SMILES,AID504770,CapD inh
COc1cc(OC)cc(C2C(C#N)=C(N)OC(N)=C2C#N)c1,-0.5,-1.2
CCOC(=O)c1cc(NC(=O)N(C(C)C)C(C)C)c(C)nc1C,1.1,6.2
Cn1c(=O)c(=O)n(C)c2cc(S(=O)(=O)CCC(=O)NCc3ccccc3)ccc21,1.6,5.3
CCOc1ccc(NC(=O)CSc2nc3ccsc3c(=O)n2-c2ccccc2)cc1,-0.15,0.16
O=C(CC12CC3CC(CC(C3)C1)C2)Nc1noc2ccccc12,-0.4,-0.4
CN1CCCN(C(=O)c2cc(=O)c3ccccc3o2)CC1,0.85,x
Cc1oc(-c2ccc(C(=O)NC3CCCC3)cc2)nc1CS(=O)c1ccccc1 (centres undefined),-0.05,0.16
CCOC(=O)c1c(NC(=O)CSc2nnc(CNC(=O)COc3ccc(Cl)cc3)n2C)sc2c1CCC2,x,0.085
CC1=C(C(=O)Nc2cccc(Cl)c2C)C(c2ccc(F)cc2)NC(=S)N1 (centres undefined),0.1,-0.38
CCCc1cc2c(c(N)n1)c(=O)oc1ccccc12,0.35,74
COc1cccc(C2(O)CCN(C(=O)Cc3ccc(OC)c(OC)c3)CC2)c1,1.5,x
COc1nc(N=C(N)N)nc2ccc(C)cc12,-1,65
CC(=O)Nc1ccc(C(=O)OCC(=O)c2ccc(Cl)cc2Cl)cc1,0.35,0.35
CCCCn1c2ccccc2c2nnc(SCCN3CCOCC3)nc21,1.8,-0.92
CC(C)(C)OC(=O)NCCC(=O)N1CCC(C(O)(c2ccccc2)c2ccccc2)CC1,x,2.6
COc1ccc(S(=O)(=O)N2CCN(c3nc4ccccc4s3)CC2)cc1,x,0.74
CC1(C)OC2OC(C(O)CO)C(O)C2O1 (centres undefined),0.35,0.21
Cc1c(Cl)cccc1NC(=O)c1cc(S(=O)(=O)N2CCN(Cc3ccc4c(c3)OCO4)CC2)ccc1F,x,-0.055
O=C1O[C@@H]2C[C@H]3C[C@@H]2[C@@H]1[C@H]3C(=O)N1CCCCC1,-0.95,-0.61
Nc1ccc(S(=O)(=O)NC2CCCCC2)cc1,-0.5,0.1

# A portion from further up, for reference:
SMILES,AID504770,CapD inh
COc1cc(OC)cc(C2C(C#N)=C(N)OC(N)=C2C#N)c1,-0.5,-1.2
CCOC(=O)c1cc(NC(=O)N(C(C)C)C(C)C)c(C)nc1C,1.1,6.2

# Rows were taken by chance; overall some 0.37% were active at least once.
